# Hedgehog cleavage: Hh protein inhibition, biochemical readout – plate reader, single concentration, primary screen (AID 588832); Biochemical plate reader assay, Hedgehog inhibition; active compounds read high; 8,000 tested, under 10 active; inhibition, % at 30.3 µM; in the data active = inhibition from about 57%;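 also: 0% = neutral control wells and 100% = positive control wells; cholesterol-driven self-cleavage of fly hedgehog protein by fluorescence polarization; read one hour after cholesterol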
# Numbers without * were called inactive. Not all compounds are listed; count on the stated rates, not on these rows.
SMILES,Hedgehog cleavage
CCC12CCCN3CCc4c(n(c5ccccc45)C(O)(C(=O)OC)C1)C32 (stereo not given),0
COc1cc(NC(=O)c2cc(C3CC3)on2)c(OC)cc1Cl,9
CC[C@]12CCCN3CCc4c(n(c5ccccc45)[C@@](O)(C(=O)OC)C1)[C@@H]32,3
Oc1cc2c(cc1O)C1c3ccc(O)c(O)c3OCC1(O)C2 (stereo not given),12
CCCCCCCCCC(=O)O,7

# Molecules from the list above that have nitrogen in an aromatic ring (3):
SMILES,Hedgehog cleavage
CCC12CCCN3CCc4c(n(c5ccccc45)C(O)(C(=O)OC)C1)C32 (stereo not given),0
COc1cc(NC(=O)c2cc(C3CC3)on2)c(OC)cc1Cl,9
CC[C@]12CCCN3CCc4c(n(c5ccccc45)[C@@](O)(C(=O)OC)C1)[C@@H]32,3

# Screening data: PubChem BioAssay, Broad Institute
